Source: PubChem
rRNA inh HTS: inhibits bacterial ribosomal RNA function over humanized ribosomes; 350,000 compounds, 1.6% hits; E. coli WT GFP vs humanized-ribosome RFP mutants, fluorescence, 24 h; active compounds read low; DMSO median 0, no signal -100; GFP signal change (wild-type ribosome), % (concentration not given with the values);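 active = significant combined selectivity score with lowered wild-type GFP, culture density cut under 30%, mutant RFP and density less affected; inactive = any of these conditions unmet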; also: one replicate is shown; some compounds called inactive have numbers as strong as hits
ALR H2O2 inh: blocks human ALR sulfhydryl oxidase activity. P55789. inhibition, % (concentration not given with the values). 290,000 compounds, 3.8% hits. purified ALR, DTT oxidation, H2O2 HRP-luminol luminescence. AID 485317;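 active = mean and each replicate at 75% or more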;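 also: stock transfer was 7.5 nL into about 7.5 µL; 0% = neutral wells and 100% = wells with inactivated enzyme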
Target sequence (P55789 whole entry, looked up): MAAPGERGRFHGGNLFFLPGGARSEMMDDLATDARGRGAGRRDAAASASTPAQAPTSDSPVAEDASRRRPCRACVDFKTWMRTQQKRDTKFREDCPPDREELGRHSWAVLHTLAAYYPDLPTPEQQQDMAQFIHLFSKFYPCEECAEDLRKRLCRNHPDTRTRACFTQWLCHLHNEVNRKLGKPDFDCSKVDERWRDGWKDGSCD
Ecoli growth: blocks Escherichia coli growth; OD600, 23 h; active compounds read low; OD600 absorbance (no concentration beside the values); 330,000 compounds, 0.21% hits;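 active = OD600 absorbance below the run mean of sample wells minus 3.6 SD, in any replicate, cut at about 0.56 in these data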;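 also: stock transfer was 300 nL into about 60 µL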
HNF4A DNA FP: change in binding of human HNF4 alpha to DNA | HNF4a-FITC DNA binding, fluorescence polarization, 1 h | AID 1224865 | activity change, % at 10 µM | 360,000 compounds, 0.3% hits; in the data active = activity change above about 30%, passing the limit was not always enough;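 also: controls were the assay level and a saturating level of protein; the project sought stronger binding though the title names inhibitors; some compounds called inactive have numbers as strong as hits; positive values seem to mean higher polarization but the record does not say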
UCH37 inh: inhibitors of human deubiquitinating enzyme UCH37; Q9Y5K5; purified proteasome/UCH37, Ub-AMC cleavage fluorescence; inhibition, % (test concentration not listed); 330,000 compounds, 0.33% hits; AID 588478;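 active = mean of two replicates above 20%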;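 also: 0% = compound-free wells with enzyme and 100% = wells lacking proteasome; stock transfer was 100 nL into about 20 µL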
Target sequence (Q9Y5K5 whole entry, looked up): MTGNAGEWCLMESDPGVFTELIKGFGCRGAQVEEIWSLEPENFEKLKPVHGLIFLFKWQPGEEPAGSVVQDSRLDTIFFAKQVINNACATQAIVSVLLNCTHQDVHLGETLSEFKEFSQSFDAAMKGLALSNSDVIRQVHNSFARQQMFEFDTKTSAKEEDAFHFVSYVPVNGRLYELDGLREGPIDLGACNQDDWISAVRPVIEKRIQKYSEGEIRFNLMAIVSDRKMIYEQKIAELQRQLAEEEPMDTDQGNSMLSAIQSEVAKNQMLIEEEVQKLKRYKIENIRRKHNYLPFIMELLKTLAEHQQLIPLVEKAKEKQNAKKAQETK
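Material: Human UCH37 enzyme supplied as purified proteasome complex | Schedule: 30 min preincubation with enzyme, 25 min cleavage at room temperature | Detection: AMC fluorescence 355/460 nm | Measure: % inhibition of Ub-AMC cleavage fluorescence | Controls: Wells without proteasome as full block, compound-free enzyme plus substrate as uninhibited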
B2AR ag: agonists of human beta-2 adrenergic receptor inducing internalization | AID 504454 | Am2.2-beta2AR cells, FAP receptor internalization, flow cytometry; reference of the scale not given here | 340,000 compounds, 0.43% hits | P07550 | response, % (test concentration not listed);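 active = response above a set limit, near 3 SD of response in nonfluorescent compounds, cut at about 42% in these data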;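 also: stock transfer was 100 nL into about 11 µL; a reference agonist was the positive control; negative values mostly stem from fluorescent compounds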
Target sequence (P07550 whole entry, looked up): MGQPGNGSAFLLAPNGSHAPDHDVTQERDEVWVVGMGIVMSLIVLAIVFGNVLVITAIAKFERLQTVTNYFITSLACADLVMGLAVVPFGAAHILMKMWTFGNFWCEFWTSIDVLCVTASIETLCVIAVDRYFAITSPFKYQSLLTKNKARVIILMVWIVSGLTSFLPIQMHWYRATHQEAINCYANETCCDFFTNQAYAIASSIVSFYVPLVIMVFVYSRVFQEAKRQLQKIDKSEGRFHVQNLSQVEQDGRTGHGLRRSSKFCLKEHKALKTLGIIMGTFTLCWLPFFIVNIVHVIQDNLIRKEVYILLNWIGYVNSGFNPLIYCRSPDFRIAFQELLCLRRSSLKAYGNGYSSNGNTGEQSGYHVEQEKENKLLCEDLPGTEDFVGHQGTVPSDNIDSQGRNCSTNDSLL
FGF22 binding: FGF22 (human) thermal shift binding | 340,000 compounds, 1.5% hits | calls only at 9.99 µM | Q9HCT0 | recombinant FGF22 thermal shift, SYPRO orange fluorescence; percent of sucrose octasulfate shift, DMSO zero | AID 651658;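 active = melting point raised past a set limit in the mean and every replicate; three in four hits are not shown here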
rRNA inh HTS OD600: also measured in rRNA inh HTS; calls as there; OD600 change, %; measured here: OD600 growth;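 optical density of the mix in the first replicate; 0 = DMSO median and -100 = no signal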
rRNA inh HTS RFP: also measured in rRNA inh HTS; calls as there; RFP signal change, %; measured here: RFP humanized mutant strains;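 first replicate; 0 = DMSO median and -100 = no signal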
Starred values were filed as active, the others as inactive; i = inactive; x = no result given; & = joins results of further samples.

Order of values: Ecoli growth	rRNA inh HTS	rRNA inh HTS RFP	rRNA inh HTS OD600	UCH37 inh	B2AR ag	HNF4A DNA FP	ALR H2O2 inh	FGF22 binding
CN(C(=O)c1cccc(NC(=O)Cc2cccc(NC(=O)C3CCN(C(=O)C4CCCCC4)CC3)c2)c1)C1CCC1
  0.69	-3	2.9	-8	0.5	-2	-3.5	x	i
O=C(CN1CCN(Cc2ccccc2)CC1)N1CCCc2ccccc21
  0.61	5	0.0	-4	2.2	2	0.9	x	i
COC(=O)Nc1nc(C)c(C(=O)c2ccccc2)s1
  0.71	x	x	x	2.4	-3	-0.5	-27	x
CC(C)CC1Nc2ncnc(N3CCN(c4ccccc4)CC3)c2N(Cc2ccc(Br)cc2)C1=O (stereo unspecified)
  0.73	17	7.3	10	-1.3	8	2.0	-10	i
O=C(c1c(F)cccc1F)N1CCN(CCOc2ccccc2)CC1
  0.7	13	5.0	7	5.2	4	1.1	9	i
O=C(Cn1cnc2c(nnn2Cc2ccc(F)cc2)c1=O)N1CCCc2ccccc21
  0.67	6	1.0	4	2.1	9	-3.5	-1	i
Cc1ccccc1-c1nc2ccccc2o1
  0.69	12	0.3	7	2.5	4	3.4	-7	i
Cc1onc(-c2c(F)cccc2Cl)c1C(=O)N1CCCc2ccccc21
  0.71	x	x	x	-2.6	-4	-1.5	-35	x
O=S(=O)(c1cccc2nonc12)N1CCCCCC1
  0.64	15	0.7	6	-0.8	2	-1.0	-3	i
COC(=O)CCN(C(=O)c1cccc([N+](=O)[O-])c1)c1ccccn1
  0.64	8	-0.6	8	-0.4	9	10	3	i
CCN1C(=O)C(CC(=O)NC)N(NC(=O)c2ccccc2)C1=S (stereo unspecified)
  0.69	x	x	x	5.5	-4	2.2	4	x
CCOC(=O)COc1ccc(N)cc1CC(NC(C)=O)(C(=O)OCC)C(=O)OCC
  0.66	18	5.4	16	2.6	18	2.1	12	i
O=C(CSc1nc2[nH]ncc2c(=O)[nH]1)NCc1ccccc1Cl
  x	6	3.7	2	x	-6	-1.5	-3	i
CCCC(=O)N1CCN(c2ccc(NC(=O)c3ccc(Br)o3)cc2)CC1
  0.74	x	x	x	4.1	6	1.2	-7	x
COc1ccc(Cc2nnc(SC(C)C(=O)Nc3ccc(F)cc3Cl)o2)cc1 (stereo unspecified)
  0.67	-3	-0.9	-4	-0.5	-4	-1.3	3	i
CC(=O)NC(c1cccc([N+](=O)[O-])c1)c1c(OC(C)=O)ccc2ccccc12 (stereo unspecified)
  0.69	x	x	x	5.1	4	0.9	-42	x
COc1ccc(CN=C2NN=C(c3ccccc3)CS2)cc1
  0.67	4	1.1	-3	2.1	1	3.5	-19	i
Oc1ccc(O)c(-c2cnns2)c1
  0.62	x	x	x	2.5	-4	2.1	99*	x
O=C(C1COc2ccccc2O1)N1CCN(c2nc3c(F)cc(F)cc3s2)CC1 (stereo unspecified)
  0.68	-1	-3.7	-17	4.2	0	0.7	-2	i
COc1ccc(N2CCN(S(=O)(=O)/C=C/c3ccccc3)CC2)cc1
  0.71	x	x	x	-0.5	-4	2.6	-18	x
O=C1Nc2ccccc2SC1c1ccccc1 (stereo unspecified)
  0.62	-12	-2.4	-23	0.5	0	-1.9	-3	i
Cc1ccc(N2CC(C(=O)OCC(=O)C(C)(C)C)CC2=O)cc1C (stereo unspecified)
  0.69	x	x	x	5.4	22	-4.5	-7	x
COC(=O)CN(c1ccc(Cl)cc1C)S(C)(=O)=O
  0.72	8	-2.5	1	-1.9	6	-0.8	-2	i
Cn1cc(C(=O)Nc2ccc(Cl)cc2)c(C(F)(F)F)n1
  0.66	-5	0.2	-3	1.4	2	0.1	-6	i
CC(C)(C)NC(=O)CN(Cc1cccs1)C(=O)CCN1CCc2ccccc21
  0.64	2	0.5	-15	1.4	0	-0.5	72	x
COC(=O)c1sccc1NC(=O)C1C2C=CC(O2)C1C(=O)O (stereo unspecified)
  0.63	x	x	x	3.2	1	-3.3	6	x
COc1ccc(OC)c(NC(=O)CNC(=O)Cn2cnc3sc(C)cc3c2=O)c1
  0.7	3	0.8	13	2.0	3	-0.5	-5	i
CC(NC(=O)c1cccnc1)C(c1cccs1)N1CCN(C)CC1 (stereo unspecified)
  0.79	3	-0.7	8	1.6	4	-0.7	x	i
N=c1sccn1CC(=O)Nc1cc(S(=O)(=O)N2CCCCC2)ccc1Cl
  0.67	8	-11	-16	3.9	1	-1.0	-8	x
CSc1ccc(CNCCN2CCOCC2)cc1
  0.7	6	-0.6	16	-0.2	-1	1.5	x	i
CCc1ccc(NC(=O)C(=O)NCCN2CCN(Cc3ccc([N+](=O)[O-])cc3)CC2)cc1
  0.72	5	0.3	3	1.0	0	3.3	-7	i
CC1CCC2(CC1)NC(CO)(CO)CO2 (stereo unspecified)
  0.66	x	x	x	1.9	7	0.0	x	x
Cc1ccc(NC(=O)c2cc(C(C)(C)C)nn2Cc2ccccc2)cc1
  0.64	1	-2.1	-3	1.1	6	-0.7	-4	i
Cc1ccccc1NC(=O)Cn1nc(C)n2cccc2c1=O
  0.69	11	-0.2	7	0.6	-2	1.2	-4	i
CC(C)C(c1nnnn1C1CCCCC1)N1CCOCC1 (stereo unspecified)
  0.67	x	x	x	2.3	1	1.0	0	x
O=C(c1cc(N2C(=O)C3C4CCC(C4)C3C2=O)ccc1Cl)N1CCCCCC1 (stereo unspecified)
  x	2	2.1	-2	x	-5	2.9	-5	i
O=C(CSc1nnc(-c2cccnc2)n1Cc1ccco1)Nc1nc(-c2ccc(F)cc2)cs1
  0.68	x	x	x	-0.5	0	-0.6	-3	x
Cc1cc(NC(=O)CCN2C(=O)/C(=C\c3ccccc3)SC2=S)no1
  0.66	2	-6.4	-6	1.5	0	2.8	-3	i
Cc1nc(-n2nnc3ccccc32)c2c3c(sc2n1)CCCC3
  0.69	x	x	x	-24	3	3.4	-1	x
Cc1ccc(S(=O)(=O)N2CCN(S(=O)(=O)N3CCC(C)CC3)CC2)c(C)c1
  0.71	-3	0.0	3	2.1	-4	-3.3	2	i
COCCOC(=O)CSc1ncccc1-c1nc2cc(C)c(C)cc2[nH]1
  0.64	-1	-0.7	3	-103	13	7.8	98*	i
CCCCN1CCCCC1(C)C(=O)NCc1cccs1 (stereo unspecified)
  x	5	-2.3	10	x	x	0.6	x	i
c1cc(C2OCCN2CC2COC3(CCCC3)O2)ccn1 (stereo unspecified)
  0.74	x	x	x	3.0	-2	-1.7	-26	x
COc1cc(SC)ccc1C(=O)NC1CCCCC1
  0.68	x	x	x	2.0	-5	0.4	x	x
COc1ccc(CCC(C)N2CCC(CO)(Cc3ccccc3)CC2)cc1 (stereo unspecified)
  x	6	1.2	3	x	1	0.2	-16	i
O=[N+]([O-])c1cc(C(F)(F)F)cc([N+](=O)[O-])c1N1CCN(S(=O)(=O)c2ccccc2)CC1
  0.74	x	x	x	2.2	-21	-3.4	x	x
COc1cccc(C(=O)NCC(=O)N/N=C(\C)Cc2ccccc2)c1
  x	6	-1.7	15	x	2	2.1	9	i
O=C(CN1C(=O)/C(=C\c2ccccc2F)SC1=S)Nc1nc2ccccc2s1
  0.72	6	10	5	5.7	0	3.6	x	i
COc1ccc([N+](=O)[O-])cc1NC(=O)CCN1CCOCC1
  0.67	5	0.3	9	6.2	-1	0.6	-15	i
COc1cccc(NC(=O)C(NCC(C)(C)CN(C)C)c2ccccc2)c1 (stereo unspecified)
  0.73	x	x	x	0.7	-6	-1.3	-8	x
Cc1cc(C)cc(Cn2c3ccc(NC(=O)NCCc4cccs4)cc3c(=O)n2C)c1
  x	8	8.5	-24	x	x	2.1	x	i
CC(C)[C@@H](C(=O)OCC(=O)Nc1ccc2c(c1)OCO2)N1C(=O)c2ccccc2C1=O
  0.75	x	x	x	3.3	3	2.8	-22	x
CCOC(=O)c1ccccc1NC(=O)COC(=O)CCC(=O)N1CCOCC1
  0.69	4	0.1	9	2.7	5	-0.4	32	i
CCS(=O)(=O)C1C(=O)N(C)C(S(=O)(=O)CC)C(=O)N1C (stereo unspecified)
  x	4	-1.8	16	x	x	-3.2	x	i
CC1=NN(c2ccc([N+](=O)[O-])cc2)C(=O)/C1=C\N(C)C
  0.65	5	-2.7	12	13	-5	-3.2	2	i
C[C@@H]1O[C@@H](Oc2c(-c3ccc(O)c(O)c3)oc3cc(O)cc(O)c3c2=O)[C@H](O)[C@H](O)[C@H]1O
  x	-3&5	-1.1&-0.2	-5&-5	1.6	-5&1	3.8&-1.7	99*	i
COCC(C)NCc1cccc(OC)c1OC (stereo unspecified)
  0.7	x	x	x	3.0	4	-4.3	0	x
NC(=O)c1cc(S(=O)(=O)NCc2ccc(F)cc2)cs1
  0.73	10	1.0	7	1.6	1	5.8	-3	i
O=C(CN1CCN(S(=O)(=O)N2CCCCC2)CC1)Nc1ccc(Br)cc1
  0.7	-17	0.8	-14	1.6	-16	-3.1	-3	i
C/C(N)=C(/C#N)C(=O)COC(=O)CNS(=O)(=O)c1ccc(F)c(F)c1F
  0.68	12	1.7	4	3.6	5	3.7	-20	i

Remaining list, next part:
Order of values: Ecoli growth	rRNA inh HTS	rRNA inh HTS RFP	rRNA inh HTS OD600	UCH37 inh	B2AR ag	HNF4A DNA FP	ALR H2O2 inh	FGF22 binding
CC1CC(C)CN(S(=O)(=O)c2ccc3c(c2)oc(=O)n3CC(=O)NCCCOC(C)C)C1 (stereo unspecified)
  0.69	0	0.0	-1	4.5	-1	5.2	-7	i
COc1ccc(NC(=O)c2cc(S(=O)(=O)NCC3COc4ccccc4O3)ccc2F)cc1 (stereo unspecified)
  0.71	x	x	x	5.0	-3	-2.0	x	x
COc1ccccc1C(=O)N1CCC(N2CCN(c3ccccc3)CC2)CC1
  0.64	-1	-1.2	8	7.8	0	-4.5	20	i
COc1cccc(C(=O)Nc2ccc(S(=O)(=O)Nc3nccc(C)n3)cc2)c1
  0.68	-4	-1.9	-8	1.7	15	-0.5	-1	i
COc1cc(C(O)c2nc(-c3ccc(C)c(C)c3)cs2)ccc1F (stereo unspecified)
  x	-46	-10.0	-69	x	x	-0.1	x	i
Cc1ccc(NC(=O)/C=C/C(=O)O)c(NC(=O)c2ccccc2)c1
  0.69	10	-0.4	5	2.5	-5	2.1	-5	i
Cc1csc(NC(=O)c2cc(-c3ccccc3)nc3ccccc23)n1
  0.72	x	x	x	-13	4	0.1	-1	x
O=[N+]([O-])c1cccc(CN2CCN(S(=O)(=O)Cc3ccccc3)CC2)c1
  0.71	5	-1.0	7	3.7	-4	0.1	x	i
COCCNC(=O)c1onc(CSc2cc(C)cc(C)c2)c1C(=O)O
  x	-3	0.2	-2	34*	2	-2.4	42	i
COc1ccc(C(=O)Nc2ccccc2)cc1NC(=O)c1cccs1
  0.65	-9	1.3	11	0.3	-9	3.5	9	i

This is a subset (hit frequency here may not be typical).
